TRPV1 potentiator – HTS Assay for Compounds that Act as Potentiators of the Vanilloid Receptor 1. TRPV1-expressing cells, Fluo-8 calcium influx, capsaicin EC20 potentiation; host cell line not named in the record; control for the full effect not named in the record. potentiation, % at 8.33 µM. 320,000 tested, 0.02% active; active means potentiation above 80%; inconclusive means 30% to 80%; inactive means below 30%; further: 0% is about no effect
Target sequence (Q8NER1 whole entry, looked up): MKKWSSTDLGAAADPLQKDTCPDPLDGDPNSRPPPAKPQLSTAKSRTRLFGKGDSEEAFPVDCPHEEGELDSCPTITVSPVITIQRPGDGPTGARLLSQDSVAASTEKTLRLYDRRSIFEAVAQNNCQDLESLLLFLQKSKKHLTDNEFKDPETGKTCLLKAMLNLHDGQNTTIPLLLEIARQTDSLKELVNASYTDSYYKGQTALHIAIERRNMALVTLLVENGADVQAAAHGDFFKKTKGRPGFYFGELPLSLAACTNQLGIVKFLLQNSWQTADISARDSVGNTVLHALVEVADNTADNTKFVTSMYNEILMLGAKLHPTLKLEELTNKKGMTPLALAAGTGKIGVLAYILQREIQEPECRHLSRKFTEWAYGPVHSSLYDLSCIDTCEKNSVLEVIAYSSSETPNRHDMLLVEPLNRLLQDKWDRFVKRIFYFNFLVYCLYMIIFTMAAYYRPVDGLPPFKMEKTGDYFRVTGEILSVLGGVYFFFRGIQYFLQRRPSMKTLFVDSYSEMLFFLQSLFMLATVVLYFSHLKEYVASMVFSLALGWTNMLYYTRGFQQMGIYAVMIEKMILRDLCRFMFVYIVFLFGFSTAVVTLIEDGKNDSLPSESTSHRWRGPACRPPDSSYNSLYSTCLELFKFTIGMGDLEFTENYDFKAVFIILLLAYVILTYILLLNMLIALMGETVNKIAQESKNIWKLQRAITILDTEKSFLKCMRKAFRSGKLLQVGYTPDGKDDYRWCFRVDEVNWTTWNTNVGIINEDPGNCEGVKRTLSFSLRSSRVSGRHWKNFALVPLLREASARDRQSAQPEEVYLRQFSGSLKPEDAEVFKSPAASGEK
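Cells expressing TRPV1 were dye-loaded with Fluo-8 and read kinetically: 10 s baseline, 3 min after compound (agonist portion), then 2 min after EC20 capsaicin (allosteric enhancer portion). Calcium-bound dye fluorescence at 480/520 nm.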
TRPML1 ag – qHTS for Agonists of the Human Mucolipin Transient Receptor Potential 1 (TRPML1); Mucolipin-1 (Homo sapiens), Q9GZU1; TRPML1-expressing cells, Ca2+ dye fluorescence, FDSS; host cell line not named in the record; reference of the full effect not given here; activation, % (concentration not given with the values); 410,000 tested, 0.12% active; in the data active = activation above about 50%; inconclusive = about 30% to 50%; inactive = below about 30%; further: 0% is about no effect; the text of the record puts the active cut at 80%
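TRPML1-DL cells, Tet-induced overnight (~16 h, 37 degrees C), loaded 45-90 min at room temperature with Ca8 no-wash calcium dye plus quencher. FDSS fluorescence: 10 s baseline, compound pin-transfer, 110 s agonist read, then EC80 54-4 (4uM final) and 110 s antagonist read.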
Sfp PPTase inh – qHTS Assay for Inhibitors of Bacillus subtilis Sfp phosphopantetheinyl transferase (PPTase); Potency, µM, without a hit: max response, negative = inhibition, usual class: inhibitors; 4'-phosphopantetheinyl transferase ffp (Bacillus subtilis), Q9F4F7; AID 1490, 2009; Biochemical Sfp PPTase activity, qHTS; 310,000 tested, 3.5% active; active means well fitted inhibition curve with a large enough effect; inconclusive means small, poorly fitted or top-dose-only effect, or another doubt; inactive means no such curve, though single readings can be large or run the other way;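 further: the enzyme is Sfp with the accession as filed and its product quenches rhodamine fluorescence; potency means the concentration at half of the fitted maximal effect; 0% = enzyme reaction without inhibitor and -100% = no enzyme wells; top concentration of the series not given in the record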
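Buffer: 50 mM Hepes-Na pH 7.6, 10 mM MgCl2, 0.01% Nonidet P-40, 0.01% BSA. Enzyme 15 nM, pre-exposed to compound 15 min; substrates then added and fluorescence change tracked over 30 min.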
TRPML1 blocker – qHTS for Inhibitors of the Human Mucolipin Transient Receptor Potential 1 (TRPML1); Mucolipin-1 (Homo sapiens), Q9GZU1; TRPML1-inducible cells, Ca2+ dye fluorescence, FDSS; stronger effect = lower value; inhibition of EC80 agonist-evoked calcium signal; activity change, negative = inhibition, % (no concentration beside the values); 390,000 tested, 0.02% active; AID 624415, 2012; in the data active means activity change below about -50%; inconclusive means about -30% to -50%; inactive means above about -30%;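 further: stimulus is agonist 54-4 at its EC80 concentration; on the % scale 0 is the no-effect control and ±100 the full control effect; compound concentration not given in the record; the text of the record puts the active cut at -80%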
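Tet-induced TRPML1-DL cells loaded with Ca8 no-wash calcium dye were read kinetically on FDSS. Compound addition was followed by EC80 agonist 54-4 (4 uM final); inhibition was read over 110 s.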
Menin MLL FP FL – qHTS Assay for Inhibitors Targeting the Menin-MLL Interaction in MLL Related Leukemias: Competition With Fluorescein Labeled MLL-derived Peptide | Fluorescence polarization, fluorescein-MLL peptide displacement from menin | FP activity change, % at 61.4 µM | 290,000 tested, under 10 active | AID 1766, 2009; inconclusive = falling polarisation curve, or a change in total fluorescence; inactive = total fluorescence flat and polarisation flat or rising; no compound was filed as active; the % refers to the polarisation; negative = inhibition;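 further: % of control where 0% means no effect; inhibitors lower the polarisation; unlabelled MLL peptide was the positive control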
PINK1 modulator – A Quantitative High throughput Screen to Identify Chemical Modulators of PINK1 Expression | PINK1 immunofluorescence, high-content cytometry, 24 h | Potency, µM (series often up to 76.6 µM), inactives show at the top dose activation (PINK1 increase), actives largely listed as activators | 410,000 tested, 0.2% active; active = well fitted activation curve with a large enough effect; inconclusive = small, poorly fitted or top-dose-only effect; inactive = flat fitted curve, though single readings scatter; cell line not stated here;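 further: potency means the concentration at half of the fitted maximal effect; % of control where 0% means no effect; nearly all actives have a fitted effect of over 65% in size; a mitochondrial uncoupler was the plate control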
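Fluorescence from anti-PINK1 antibody, together with nuclear and cell stains, was scanned on a laser-scanning cytometer. Before staining, stable-line cells were incubated 24 hours with compounds at 5 concentrations; primary antibody 12 h at 10 degrees C.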
ClpP mod – qHTS Assay for Activators of ClpP; AID 651965, 2013; 340,000 tested, 1.9% active; purified B. subtilis ClpP, FRET peptide cleavage, 20 min; ATP-dependent Clp protease proteolytic subunit (Bacillus subtilis (strain 168)), P80244; Potency, µM (doses to about 57.5 µM), without a hit: top-dose activity change, negative = active; active = well fitted falling curve with a large enough effect; inconclusive = small, poorly fitted or top-dose-only effect; inactive = no such curve, though single readings can be large or run the other way; further: potency means the concentration at half of the fitted maximal effect; the source files actives as falling curves though it sought activators and does not explain the sign; nearly all actives have a fitted effect of over 65% in size; many hits overshoot -100%
Target sequence (P80244 whole entry, looked up): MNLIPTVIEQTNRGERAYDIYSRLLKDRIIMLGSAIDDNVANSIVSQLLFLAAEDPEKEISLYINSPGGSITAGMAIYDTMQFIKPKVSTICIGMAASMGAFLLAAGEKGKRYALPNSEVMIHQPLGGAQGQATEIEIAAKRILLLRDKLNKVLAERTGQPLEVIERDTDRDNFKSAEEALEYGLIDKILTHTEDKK
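FRET quenching reversal measured ClpP activation: 10 microg/mL B. subtilis ClpP at pH 8 with the FRET-FV decapeptide, read at 430 nm after 320 nm excitation. The 20-min minus 0-min signal was scaled between DMSO/no-enzyme wells and ADEP (5.8 microM final).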
Numbers without * were called inactive; ? = inconclusive; . = not tested or not shown; & = joins results of further samples; ! = not confirmed by another sample; [ ] = dose if it differs, or a comment.

SMILES	TRPV1 potentiator	TRPML1 ag	Sfp PPTase inh	TRPML1 blocker	Menin MLL FP FL	PINK1 modulator	ClpP mod
CCCc1ccc(OCc2ccc(C(=O)Nc3ccccc3C(=O)OC)o2)cc1	.	2.3	.	7	.	-0.7%	3.9%
O=C(/C=C/c1c[nH]c2ccccc12)c1cccc2ccccc12	-6	0.2	?	-14	?	19%	-3.0%
C=CCNCCOc1c(C)cc(C)cc1Cl	4	1.3	3%	-16	1.4	0.1%	-1.6%
CCC(C)(C)NC(=O)CN(Cc1cccs1)C(=O)C(=O)Nc1ccc2c(c1)OCCO2	-26	1.1	9%	5	0.5	-3.2%[38.3 µM]	1.5%
CC(OC(=O)c1ccc(-c2ccc(O)cc2)cc1)C(=O)NC1CCCCC1C (configuration not stated)	0	-0.2	.	-5	.	12%	?
CCN(C(=O)CN1CCN(Cc2ccccc2)CC1)c1c(N)n(Cc2ccccc2)c(=O)[nH]c1=O	16	0.6	15%	40	0.2	-1.3%	.
Cc1ccc(N2C(=O)CC(C3CCCO3)C2=O)cc1 (configuration not stated)	2	2.0	10%	21	-0.4	-2.6%[38.3 µM]	-2.8%
COc1ccc(C/C(C)=N/NC(=S)Nc2ccc(Cl)cc2)cc1	7	1.8	?	2	-1.7	2.7%	.
O=C(CSc1nnnn1C1CCCC1)NCc1cccs1	16	-0.3	7%	-17	5.2	-2.7%	-2.8%
Cc1ccc(S(=O)(=O)Nc2cccc(C(=O)N3CCOCC3)c2)cc1	-10	-0.5	11%	-2	-0.1	-2.3%	.
CC(=O)Nc1ccc(S(=O)(=O)N2CCC(C(=O)N[C@@H](Cc3ccccc3)C(=O)O)CC2)cc1	15	-0.3	28%	-15	2.8	-0.7%	-1.5%
Cc1ccc(NC(=O)CN(C)S(=O)(=O)c2ccc3c(c2)n(C)c(=O)c(=O)n3C)c(C)c1	6	-1.1&1.8	19%	9&-17	4.7	1.4%&1.5%	32µM*!
Cc1noc(C)c1S(=O)(=O)N1CCN(S(=O)(=O)c2ccccc2C#N)CC1	1	1.6	18%	38	0.1	15%	.
COc1ccc([N+](=O)[O-])cc1NC(=O)C(C)N1CCCC1 (configuration not stated)	11	0.1	22%	-7	7.2	1.4%	.
CCCCCc1nnc(NC(=O)c2ccc(N3CCCC3=O)cc2)s1	11	-0.6	.	-6	.	2.3%	-8.9%
CCN(CC(=O)NC1CCCC1)S(=O)(=O)c1ccc(Br)cc1	-13	0.8	19%	13	.	0.5%	-1.8%
CCn1c(=NC(=O)c2ccc(S(=O)(=O)N3CCCC3)cc2)sc2cc(Br)ccc21	.	0.7	.	14	.	-0.3%	?
CCOC(=O)CCC(=O)Nc1nnc2n1CCS2	.	0.8	.	-13	.	-3.5%	-4.5%
c1ccc(-c2nnsc2-c2nc3ccccc3[nH]2)cc1	-8	3.5	6%	2	1.8	5.6%	.
O=C(CN(c1ccc(Br)cc1)S(=O)(=O)c1ccc(Cl)c([N+](=O)[O-])c1)NCCc1ccccc1	5	-1.1	9%	-9	-1.2	0.2%	25µM*
Cc1c(N2C(=O)C3C4C=CC(C5CC45)C3C2=O)c(=O)n(-c2ccccc2)n1C (configuration not stated)	5	0.6	7%	-16	4.2	0.3%	.
O=[N+]([O-])c1ccc(SCc2ccco2)cc1N1CCOCC1	-2	1.4	-17%	-12	1.1	2.4%	2.2%
Cc1cc(C)cc(C(=O)NC(CC(N)=O)c2ccc(N3CCCCCC3)c([N+](=O)[O-])c2)c1 (configuration not stated)	-1	-0.8	-19%	11	0.5	3.3%	2.4%
CCCc1cc(C(=O)NNC(=S)NCc2ccccc2)cs1	26	0.0	7%	14	-4.1	-5.2%[38.3 µM]	2.6%
CCOc1ccc(S(=O)(=O)N2CCC(C(=O)NCCN3CCOCC3)CC2)cc1C	3	-0.5	9%	33	-4.4	2.7%	.

One compound at a time, from the list above. Values in the order: TRPV1 potentiator | TRPML1 ag | Sfp PPTase inh | TRPML1 blocker | Menin MLL FP FL | PINK1 modulator | ClpP mod
Listed for `Cc1ccc(NC(=O)CN(C)S(=O)(=O)c2ccc3c(c2)n(C)c(=O)c(=O)n3C)c(C)c1` = 6 | -1.1&1.8 | 19% | 9&-17 | 4.7 | 1.4%&1.5% | 32µM*!
Listed for `O=[N+]([O-])c1ccc(SCc2ccco2)cc1N1CCOCC1` = -2 | 1.4 | -17% | -12 | 1.1 | 2.4% | 2.2%
Listed for `CCOc1ccc(S(=O)(=O)N2CCC(C(=O)NCCN3CCOCC3)CC2)cc1C` = 3 | -0.5 | 9% | 33 | -4.4 | 2.7% | .

(next part)
SMILES	TRPV1 potentiator	TRPML1 ag	Sfp PPTase inh	TRPML1 blocker	Menin MLL FP FL	PINK1 modulator	ClpP mod
CC1CCC(NC(=O)c2nc(Cn3ccc([N+](=O)[O-])n3)no2)CC1 (configuration not stated)	-21	0.0	11%	20	-3.1	0.4%	.
Cc1ccc(C(=O)c2cc([N+](=O)[O-])ccc2N2CCCCC2)cc1C	-15	1.9	-2%	29	6.2	6.4%	1.4%
Cc1ccccc1N=C1SC(CC(=O)Nc2ccc3ccccc3c2)C(=O)N1Cc1ccccn1 (configuration not stated)	16	2.3	9%	15	0.7	0.5%	-1.2%
CC1CCCN(CCOc2ccc3ccccc3c2Br)C1 (configuration not stated)	2	0.4	16µM*	-4	-2.9	1.3%	.
Cc1ccc(S(=O)(=O)N2CCCCC2)cc1NC(=O)CCOc1ccccc1	10	-0.7	7%	11	2.3	1.0%	-1.3%
O=C(NCC(c1ccc(F)cc1)N1CCOCC1)c1ccc([N+](=O)[O-])o1 (configuration not stated)	.	0.6	.	-14	.	1.5%	2.1%
Cc1cccc(C)c1C(OCCN(C)C)C1CCCCC1 (configuration not stated)	-10	1.5	-5%	8	3.4	2.8%	0.9%
Cc1ccc(S(=O)(=O)C2C(=O)N(C)C3(C)CC2c2ccccc2O3)cc1 (configuration not stated)	-4	2.1	12%	-22	-1.2	-2.9%	1.2%
O=C(Cn1c(=O)n(CCc2ccccc2)c(=O)c2cccnc21)Nc1ccc(F)cc1	.	-0.7	.	39	.	2.9%	?
CCCOC1CCCN(C(=O)CCc2nnc(CCCCc3ccccc3)o2)C1 (configuration not stated)	4	0.5	-3%	33	-2.3	0.3%	1.0%
CCCCSc1nnc2n(-c3cccc(C)c3)c(=O)c3c4c(sc3n12)CCCC4	.	-0.2	.	8	.	-0.4%	-7.0%
CCCC(=O)Nc1ccc2c(c1)C(=O)NC2=O	8	-0.4	8%	5	-0.3	1.1%	3.4%
O=C(Cc1ccccc1[N+](=O)[O-])NCc1ccc2c(c1)OCO2	-4	-0.4	9%	0	20	-1.2%	32µM*
O=C(OCCCN=C1NS(=O)(=O)c2ccccc21)c1ccccc1	-15	-0.3	13%	2	.	0.2%	-0.8%
COc1ccc(-n2nnc(-c3nsc(NC(=O)c4cccs4)n3)c2C)cc1OC	.	0.3	.	7	.	0.7%	2.9%
FC(F)(F)c1cccc(Oc2nc(-c3ccccc3)nnc2C(F)(F)F)c1	11	0.0	-11%	9	-0.2	6.7%	1.3%
CS(=O)(=O)N(CC(=O)N1CCN(c2ccccc2F)CC1)C1CCCCC1	3	0.6	2%	-24	5.5	6.5%[38.3 µM]	1.9%
CCCCCO	-1	0.5	.	25	.	-0.6%	-3.5%
CC1=C(C(=O)OCc2cc(C)on2)N2C(=O)[C@@H](NC(=O)OCc3cc(C)on3)[C@H]2SC1	28	-0.4&-0.7	.	2	.	1.1%	-9.0%&-3.7%
Cc1cc(C)c2oc(C(=O)Nc3ccc(S(=O)(=O)Nc4nccc(C)n4)cc3)cc(=O)c2c1	-5	-0.2&1.3	13%	-9&-14	-1.5	1.6%&-0.2%	-0.4%&-2.2%
COc1cc(/C=C2\SC(N)=NC2=O)cc(OC)c1	5	-0.3	0%	0	14	0.2%	0.2%
COc1ccccc1NC(=O)NCc1ccco1	-10	-0.4	10%	-22	-0.4	-0.6%	.
CC[n+]1c(/C=C(\C)OC)sc2ccccc21	-1	0.5	-11%	-7	-1.7	1.2%	.
COc1ccc(C(C)=O)cc1CC(=O)NC1CCCCCC1	6	-0.4	3%	7	6.4	3.8%	.
Cc1ccc(CNC(=O)COC(=O)C2CCN(S(=O)(=O)c3cccs3)CC2)cc1	5	0.6	-6%	26	-0.8	-0.4%	.
SMILES	TRPV1 potentiator	TRPML1 ag	Sfp PPTase inh	TRPML1 blocker	Menin MLL FP FL	PINK1 modulator	ClpP mod
CC1=C(C(=O)Nc2ccc(C)cc2)C(c2ccco2)NC(=O)N1 (configuration not stated)	3	-0.2	25%	-20	2.0	0.1%	2.6%
CC(=O)Nc1ccc(-c2csc(NC(=O)Cc3ccccc3F)n2)cc1	0	0.5	3%	-6	-3.7	2.5%	.
Cc1c(/C=N/NC(=O)c2cc(Br)ccc2O)c(=O)n(C)c(=O)n1C	?	-0.3	3%	-6	-0.3	1.0%	.
O=C(/C(C=Nc1cccc(C(F)(F)F)c1)=C(/O)c1ccco1)C(F)(F)F	-11	0.9	-4%	-6	?	0.1%	-4.4%
COc1cc(NC(=O)CSc2nnc3c(C)cc4c(C)ccc(C)c4n23)c(C(=O)O)cc1OC	14	0.6	5%	-12	-2.9	3.2%	.
CC1=C(C(=O)N2CCN(c3cccc(C)c3C)CC2)C2(CCCCC2)OC1=O	.	1.0	.	-16	.	-1.1%	1.8%
Cc1nn(-c2ccccc2)c(Cl)c1C1C(C#N)=C(N)OC2=C1C(=O)CCC2 (configuration not stated)	-3	-1.1	-5%	17	2.4	0.7%	0.5%
CCc1ccc(CN(Cc2ccco2)c2cnc(S(C)(=O)=O)nc2C(=O)Nc2cccc(C)c2)cc1	.	1.1	.	32	.	0.7%	-9.7%
